rRNA inh HTS: inhibits bacterial ribosomal RNA function over humanized ribosomes. E. coli WT GFP vs humanized-ribosome RFP mutants, fluorescence, 24 h; active compounds read low; DMSO median 0, no signal -100. 1.6% of 350,000 active. GFP signal change (wild-type ribosome), % (no concentration beside the values);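 active means significant combined selectivity score with lowered wild-type GFP, culture density cut under 30%, mutant RFP and density less affected; inactive means any of these conditions unmet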; further: one replicate is shown; some compounds called inactive have numbers as strong as hits
AF4-AF9 inh: MLL-AF4/AF9 protein interaction inhibition. inhibition, % at 10 µM. 0.47% of 350,000 active. AID 651704. P42568. AlphaScreen, biotin-AF4 peptide binding to FLAG-AF9;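 active means every replicate reaching a set inhibition limit, whatever the replicate mean, cut at about 25% in these data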;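 further: 0% = plate neutral control median and 100% = total signal loss; the record names both 10 and 1 µM as test concentration; the first replicate is given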
Target sequence (P42568 whole entry, looked up): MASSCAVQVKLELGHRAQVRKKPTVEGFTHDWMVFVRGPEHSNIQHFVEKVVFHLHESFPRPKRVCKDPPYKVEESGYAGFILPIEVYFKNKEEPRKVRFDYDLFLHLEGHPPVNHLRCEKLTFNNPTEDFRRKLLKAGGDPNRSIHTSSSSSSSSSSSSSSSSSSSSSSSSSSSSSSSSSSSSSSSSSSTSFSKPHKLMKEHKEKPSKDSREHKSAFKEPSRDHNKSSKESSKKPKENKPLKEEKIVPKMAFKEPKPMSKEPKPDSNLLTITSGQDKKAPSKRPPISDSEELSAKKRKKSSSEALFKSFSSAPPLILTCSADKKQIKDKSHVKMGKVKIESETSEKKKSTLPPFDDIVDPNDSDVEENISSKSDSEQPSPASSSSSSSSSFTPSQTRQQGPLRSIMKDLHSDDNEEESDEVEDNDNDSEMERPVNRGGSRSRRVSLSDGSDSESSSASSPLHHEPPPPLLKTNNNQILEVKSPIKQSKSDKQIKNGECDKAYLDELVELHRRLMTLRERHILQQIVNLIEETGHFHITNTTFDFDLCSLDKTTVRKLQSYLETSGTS
rRNA inh HTS OD600: recorded beside rRNA inh HTS, whose call it bears; OD600 change, %; measured here: OD600 growth;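 optical density of the mix in the first replicate; 0 = DMSO median and -100 = no signal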
rRNA inh HTS RFP: further read-out of rRNA inh HTS, marked with its call; RFP signal change, %; measured here: RFP humanized mutant strains;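 first replicate; 0 = DMSO median and -100 = no signal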
* hit, by the source's call; & = joins results of further samples. Only part of the results is shown, so the mix of outcomes need not match the whole.

SMILES	rRNA inh HTS	rRNA inh HTS OD600	rRNA inh HTS RFP	AF4-AF9 inh
N#C[C@@H]1[C@H](c2ccc(C3=CCCC3)cc2)[C@@H](CO)N1C(=O)NC1CCCCC1	4.6	-18.6	3.0	-2.4
C[C@H](CO)N1C[C@H](C)[C@@H](CN(C)S(=O)(=O)c2cccc(F)c2)OCc2ccccc2-c2ccccc2C1=O	4.1	-5.1	1.0	-1.2
COCC#Cc1ccc([C@@H]2[C@@H](CO)N3C(=O)CN(C(=O)C4CCOCC4)C[C@H]23)cc1	3.3	8.7	-4.0	-0.9
O=C(C[C@@H]1CC[C@H]2[C@@H](COC[C@H](O)CN2Cc2cc(F)cc(F)c2)O1)NC1CCC1	-1.8	-2.4	-0.2	1.1
O=C(c1ccc2c(c1)OCO2)N1CC(=O)N2[C@H](CO)[C@H](c3ccc(C#Cc4ccccc4)cc3)[C@@H]2C1	3.2	-29.4	32.2	-1.6
COc1ccc(NC(=O)N2C[C@@H]3N[C@H](C2)C3c2ccc(-c3cncnc3)cc2)cc1 (stereo partly specified)	4.6&5.1	-8.8&8.1	0.3&-3.8	-4.9&-7.7
CCCN1[C@@H]2Cn3c(ccc(-c4ccccc4F)c3=O)[C@H]1[C@@H](C(=O)NCc1ccccn1)[C@@H]2CO	5.0	13.0	0.8	-3.9
C/C=C/c1ccc2c(c1)[C@H]1[C@H](CCN1C(=O)c1ccc(F)cc1)[C@H](CO)N2	9.6	14.1	0.1	3.1
Cc1ccc(S(=O)(=O)N(C)C[C@H]2OCCCC[C@@H](C)Oc3ccc(NC(=O)c4ccncc4)cc3C(=O)N([C@@H](C)CO)C[C@@H]2C)cc1	-0.1	-1.6	2.0	0.7
C/C=C/c1ccc([C@H]2[C@@H](CO)N3C(=O)CN(C(=O)c4cccc(F)c4)C[C@@H]23)cc1	2.5	-6.1	0.4	-4.1
CS(=O)(=O)N1CC(=O)N2[C@H](C1)[C@H](c1ccc(C#Cc3cccc(F)c3)cc1)[C@@H]2CO	0.8	-26.9	4.8	-3.3
CO[C@@H]1CN(C)C(=O)c2ccc(NC(C)=O)cc2OC[C@@H](C)N(C(=O)C2CCC2)C[C@H]1C	2.0	3.4	-1.1	1.5
C/C=C/c1ccccc1[C@H]1[C@H](C#N)N(C(=O)c2cccnc2)[C@H]1CO	1.6	-7.0	0.0	1.0
C[C@H](CO)N1C[C@H](C)[C@@H](CN(C)C(=O)Nc2ccc(F)cc2)Oc2ccc(NC(=O)C3CCCCC3)cc2C1=O	-0.9	0.2	0.8	0.5
COc1ccc2c3c(n(C)c2c1)[C@H](CO)N(Cc1cccnc1)CC31CN(C(=O)c2cccnc2)C1	6.4	13.5	-1.7	-2.7
O=C(C[C@H]1C[C@@H]2c3cc(NS(=O)(=O)c4ccc(F)cc4)ccc3O[C@@H]2[C@@H](CO)O1)NCc1ccc(-c2ccccc2)cc1	-6.0	-7.3	4.9	1.4
C[C@@H]1CCCCO[C@H](CN(C)C(=O)Nc2ccccc2)[C@H](C)CN([C@H](C)CO)C(=O)c2cc(NC(=O)NC3CCCCC3)ccc2O1	0.9	1.4	0.4	-1.5
O=C(C[C@H]1CC[C@H](NC(=O)Cc2cccnc2)[C@@H](CO)O1)Nc1ccccc1	1.8	5.6	-0.6	-2.4
O=C(C1CCC1)N1CC(=O)N2[C@H](CO)[C@@H](c3ccc(C#Cc4cccc(F)c4)cc3)[C@@H]2C1	-59.0	-75.6	-12.6	-5.0
O=C(c1cnccn1)N1CC(=O)N2[C@H](CO)[C@@H](c3ccc(C#CC4CCCC4)cc3)[C@H]2C1	3.8	-0.6	-1.5	5.2
O=C(C1CCC1)N1CC(=O)N2[C@H](CO)[C@@H](c3ccc(C#CCc4ccccc4)cc3)[C@@H]2C1	0.1	-7.7	7.8	-3.5
CCS(=O)(=O)N1CC(=O)N2[C@H](CO)[C@H](c3ccc(-c4ccccc4)cc3)[C@@H]2C1	2.1	1.8	0.7	0.6
O=C(c1ccccc1)N1CC(=O)N2[C@H](CO)[C@@H](c3ccc(C#Cc4ccccc4)cc3)[C@@H]2C1	-14.0	-29.8	3.4	-0.2
CCCNC(=O)C[C@H]1CC[C@@H]2[C@@H](COc3ccc(NC(=O)NCCC)cc3C(=O)N2C)O1	2.2	-7.0	0.0	-1.9
CO[C@@H]1CN(C)C(=O)c2ccc(NC(C)=O)cc2OC[C@@H](C)N(CC2CC2)C[C@H]1C	2.3	-1.9	1.2	-4.0
More records follow:
SMILES	rRNA inh HTS	rRNA inh HTS OD600	rRNA inh HTS RFP	AF4-AF9 inh
O=C(Cc1ccccc1)N1CC(=O)N2[C@H](CO)[C@H](c3ccc(Br)cc3)[C@H]2C1	4.4	-2.9	-3.2	-0.8
C[C@H]1CN([C@@H](C)CO)C(=O)c2cc(N(C)C)ccc2O[C@H]1CN(C)CC1CCCCC1	4.4	6.8	-5.1	-5.0
O=C(c1ccc(F)cc1)N1CC(=O)N2[C@H](CO)[C@@H](c3ccc(C#CC4CC4)cc3)[C@H]2C1	5.8	14.1	-1.1	1.8
COc1ccc2c3c([nH]c2c1)[C@@H](CO)N(C(C)=O)CC31CCN(C(=O)c2ccc3c(c2)OCO3)CC1	2.2	12.4	1.9	25.4*
O=C(C[C@@H]1C[C@H]2c3cc(NC(=O)C4CCOCC4)ccc3O[C@H]2[C@@H](CO)O1)NCC1CC1	1.5	4.5	-0.4	-1.7
O=C(O)C[C@H]1C[C@H]2c3cc(NC(=O)C4CCOCC4)ccc3O[C@H]2[C@@H](CO)O1	3.2	6.4	0.3	-0.7
CN(C)CCCNC(=O)[C@@H]1[C@@H](CO)[C@@H]2Cn3c(ccc(-c4cccc(F)c4)c3=O)[C@H]1N2	3.8	1.5	-1.8	10.2
CN(C)CC#Cc1ccc([C@@H]2[C@H]3CN(C(=O)Cc4cccnc4)CC(=O)N3[C@H]2CO)cc1	1.6	-9.5	1.1	-2.6
Cc1ccc(S(=O)(=O)Nc2ccc3c(c2)C(=O)N([C@@H](C)CO)C[C@H](C)[C@@H](CN(C)Cc2ccc(Cl)c(Cl)c2)OCCCC[C@H](C)O3)cc1	-3.7	-2.7	2.2	1.8
O=C(Nc1cccc(F)c1)N1CC(=O)N2[C@H](CO)[C@@H](c3ccc(-c4ccccc4)cc3)[C@@H]2C1	-44.0	-65.0	0.6	-0.9
O=C(Nc1ccc(F)cc1)N1CC(=O)N2[C@H](CO)[C@H](c3ccc(C#CC4CC4)cc3)[C@H]2C1	-0.7	3.4	0.5	3.6
C[C@@H]1CN([C@@H](C)CO)S(=O)(=O)c2ccc(C#Cc3ccc(F)cc3)cc2O[C@@H]1CN(C)CC1CC1	3.1	-6.3	12.1	5.5
COCC#Cc1ccc([C@@H]2[C@H](CO)N3C(=O)CN(C(=O)C4CC4)C[C@@H]23)cc1	1.6	20.5	-4.5	-2.4
CCC(=O)N1C[C@H](C)[C@@H](OC)CN(C)C(=O)c2ccc(NC(=O)C3CC3)cc2OC[C@@H]1C	2.2	4.9	-2.0	-0.3
CN(C)CC(=O)N1[C@H](C#N)[C@H](c2ccccc2-c2ccccc2F)[C@@H]1CO	3.4	2.6	0.7	-3.4
O=C(C[C@H]1CC[C@H]2[C@@H](COC[C@@H](O)CN2CC2CC2)O1)NCC1CC1	-1.6	4.8	-2.1	-1.8
Cc1noc(C)c1NC(=O)N(C)C[C@H]1OCCCC[C@@H](C)Oc2ccc(NS(=O)(=O)c3ccccc3)cc2C(=O)N([C@H](C)CO)C[C@H]1C	-5.3	-6.8	-0.7	-4.1
COc1cccc(-c2ccc(C3[C@H]4CNC[C@@H]3N4S(=O)(=O)Cc3ccccc3)cc2)c1 (stereo partly specified)	9.7	-28.6	2.0	-1.8
O=C(CC1CC1)N1CC(=O)N2[C@H](CO)[C@@H](c3ccc(/C=C/c4ccccc4)cc3)[C@H]2C1	-0.1	3.6	2.8	15.2
O=C(Cc1ccccn1)N1CC(=O)N2[C@H](C1)[C@@H](c1ccc(C#CC3CCCC3)cc1)[C@@H]2CO	1.8	-6.6	0.4	3.9
O=C(Nc1ccc(F)cc1)N1CC(=O)N2[C@H](C1)[C@@H](c1ccc(-c3ccc(F)cc3)cc1)[C@@H]2CO	-51.5	-67.8	-5.6	-1.5
N#C[C@@H]1[C@H](c2ccccc2-c2cccc(F)c2)[C@H](CO)N1C(=O)Nc1cc(F)ccc1F	-2.8	-9.4	-2.3	1.0
CCc1nc(N2[C@H](CO)[C@H](c3ccccc3-c3ccccc3C)[C@@H]2C#N)sc1C	-0.5	-17.4	-2.1	-0.4
CCC(=O)N1CC(=O)N2[C@H](CO)[C@H](c3ccc(C#CC4CCCC4)cc3)[C@H]2C1	5.8	1.3	-3.7	-2.7
O=C(NC1Cc2ccccc2C1)[C@@H]1[C@@H](CO)[C@@H]2Cn3c(ccc(C4=CCCCC4)c3=O)[C@H]1N2	-3.2	0.4	-1.3	-0.5

By substructure: the entries above with an aryl methoxy group (4)
SMILES	rRNA inh HTS	rRNA inh HTS OD600	rRNA inh HTS RFP	AF4-AF9 inh
COc1ccc(NC(=O)N2C[C@@H]3N[C@H](C2)C3c2ccc(-c3cncnc3)cc2)cc1 (stereo partly specified)	4.6&5.1	-8.8&8.1	0.3&-3.8	-4.9&-7.7
COc1ccc2c3c(n(C)c2c1)[C@H](CO)N(Cc1cccnc1)CC31CN(C(=O)c2cccnc2)C1	6.4	13.5	-1.7	-2.7
COc1ccc2c3c([nH]c2c1)[C@@H](CO)N(C(C)=O)CC31CCN(C(=O)c2ccc3c(c2)OCO3)CC1	2.2	12.4	1.9	25.4*
COc1cccc(-c2ccc(C3[C@H]4CNC[C@@H]3N4S(=O)(=O)Cc3ccccc3)cc2)c1 (stereo partly specified)	9.7	-28.6	2.0	-1.8

Further structures follow.
SMILES	rRNA inh HTS	rRNA inh HTS OD600	rRNA inh HTS RFP	AF4-AF9 inh
COc1ccc(NC(=O)Nc2ccc3c(c2)CC(=O)N([C@H](C)CO)C[C@@H](C)[C@@H](CN(C)C(=O)NC2CCCCC2)O3)cc1	-1.3	-0.1	-0.8	-3.7
CO[C@H]1CN(C)C(=O)c2ccc(NS(=O)(=O)CC(F)(F)F)cc2OC[C@H](C)N(C(=O)c2ccc3c(c2)OCO3)C[C@@H]1C	3.0	3.0	3.2	1.1
C/C=C/c1ccc([C@H]2[C@@H](CO)N3C(=O)CN(Cc4ccc(F)cc4)C[C@H]23)cc1	-1.3	1.6	-1.2	5.4
O=C(Cc1ccccc1)NC[C@H]1N[C@H](CO)[C@@H]1c1ccc(-c2ccccc2)cc1	-5.8	-35.1	10.4	1.7
CCS(=O)(=O)N[C@H]1C=C[C@@H](CC(=O)O)O[C@@H]1CO	1.4	13.7	-0.5	-2.3
CN1C(=O)c2cc(NC(=O)C3CCC3)ccc2OC[C@@H]2O[C@@H](CC(=O)NCC3CCCCC3)CC[C@H]21	2.5	5.0	0.6	-2.6
COCC#Cc1ccc([C@@H]2[C@H]3CN(C(=O)c4cccnc4)CC(=O)N3[C@H]2CO)cc1	5.0	12.0	0.9	8.5
O=C1CN(S(=O)(=O)Cc2ccccc2)C[C@@H]2[C@H](c3ccc(C#Cc4cccnc4)cc3)[C@@H](CO)N12	0.4	7.4	-2.2	-7.0
CC=Cc1ccc2n(c1=O)C[C@H]1[C@H](CO)[C@@H](C(=O)NC3CCC3)N(Cc3ccncc3)[C@@H]21 (mixture of isomers)	4.6	6.3	-0.6	-3.4
CN(C)C(=O)C[C@@H]1CC[C@H]2[C@@H](COC[C@H](O)CN2CC2CC2)O1	3.1	8.7	-2.7	-5.3
CCS(=O)(=O)N1CCC2(CC1)CN[C@@H](CO)c1[nH]c3cc(OC)ccc3c12	3.3	9.6	-1.8	5.0
COc1ccc(CN(C)C[C@H]2Oc3ccc(NC(=O)CCC(F)(F)F)cc3CC(=O)N([C@@H](C)CO)C[C@@H]2C)cc1	-3.8	1.9	1.1	-0.8
O=C(CC1CC1)N1CC(=O)N2[C@H](CO)[C@@H](c3ccc(-c4ccccc4)cc3)[C@@H]2C1	3.0	16.1	4.2	-9.4
C[C@@H]1CN([C@H](C)CO)C(=O)c2cccc(NS(C)(=O)=O)c2O[C@H]1CN(C)Cc1ccncc1	2.3	10.5	-2.0	-2.1
C[C@H](CO)N1C[C@H](C)[C@H](CN(C)Cc2ccccc2)Oc2c(NC(=O)CCCCCC(=O)Nc3ccccc3N)cccc2C1=O	3.4	10.3	-4.3	-2.7
CN1CCN(C(=O)C[C@@H]2CC[C@@H]3[C@H](COC[C@@H](O)CN3CC3CCCC3)O2)CC1	6.1	10.8	-1.4	-3.4
Cc1ccccc1S(=O)(=O)N1CC(=O)N2[C@@H](CO)[C@@H](c3ccc(C#Cc4ccccc4)cc3)[C@@H]2C1	4.5	7.6	1.0	-1.6
Cc1cc(C(=O)Nc2ccc3c(c2)C(=O)N(C)[C@@H]2CC[C@@H](CC(=O)N[C@H](C)c4ccccc4)O[C@@H]2CO3)no1	3.0	4.7	1.3	-0.7
O=C(c1ccncc1)N1C[C@@H]2N[C@H](C1)C2c1ccc(-c2ccncc2)cc1 (stereo partly specified)	0.3	4.6	3.0	-4.2
COc1ccc(-c2ccc([C@H]3[C@@H](CO)N4C(=O)CN(C(=O)C5CCCC5)C[C@@H]34)cc2)cc1	0.5	-3.0	8.5	-1.2
O=C(C[C@@H]1C=C[C@@H](NC(=O)C2CCOCC2)[C@H](CO)O1)Nc1ccccc1	1.7	1.6	0.2	-2.9
CN(C)C(=O)c1cccc(-c2ccccc2[C@H]2[C@@H](C#N)N(C(=O)C3CCC3)[C@@H]2CO)c1	0.9	16.8	2.3	1.0

From PubChem
